# Source: PubChem BioAssay (National Center for Advancing Translational Sciences (NCATS))
# NS1 inh = inhibitors of influenza NS1 protein function; S. cerevisiae slowed by influenza A NS1, growth recovery by OD600; Potency, µM (titrated, usually from 46.1 µM), for the others: top-dose activity, positive = more growth; actives 0.4% (n = 270,000); AID 2326; further: actives are rising curves; nearly all actives have a fitted effect of over 50% in size
#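 Growth recovery, yeast-based: influenza A NS1 expressed in S. cerevisiae causes slow growth, and suppressors are detected by OD600. The parent strain without NS1 is used as positive control.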
# Lassa entry inh = Lassa virus entry inhibition; AID 540256; Lassa virus pseudotype entry inhibition, cell reporter; control for the full effect not named in the record; Potency, µM (doses to about 37.9 µM), inactives show top-dose activity change, negative = inhibition, most hits filed as inhibitors; actives 1.2% (n = 300,000); active means well fitted inhibition curve with a large enough effect; inconclusive means small, poorly fitted or top-dose-only effect, or effect the other way; inactive means flat fitted curve, though single readings scatter; tested in HEK293 cells; further: on the % scale 0 is the no-effect control and ±100 the full control effect; nearly all actives have a fitted effect of over 50% in size; luciferase read-out
# Cruzain inh Det = inhibitors of Trypanosoma cruzi cruzain with detergent; P25779; purified cruzain, Z-FR-AMC fluorescence, 0.01% Triton; Potency, µM, without a hit: max response, negative = inhibition, usual class: inhibitors; actives 0.43% (n = 200,000); active means well fitted curve in the direction sought with a large enough effect; inconclusive means small, poorly fitted or top-dose-only effect, or another doubt; inactive means no such curve, though single readings can be large; an effect the other way counts as inactive or inconclusive;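 further: plate controls were neutral wells for no effect and buffer without enzyme for full effect; nearly all actives have a fitted effect of over 40% in size; top concentration of the series not given in the record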
# Target sequence (P25779 123-467 limits assumed): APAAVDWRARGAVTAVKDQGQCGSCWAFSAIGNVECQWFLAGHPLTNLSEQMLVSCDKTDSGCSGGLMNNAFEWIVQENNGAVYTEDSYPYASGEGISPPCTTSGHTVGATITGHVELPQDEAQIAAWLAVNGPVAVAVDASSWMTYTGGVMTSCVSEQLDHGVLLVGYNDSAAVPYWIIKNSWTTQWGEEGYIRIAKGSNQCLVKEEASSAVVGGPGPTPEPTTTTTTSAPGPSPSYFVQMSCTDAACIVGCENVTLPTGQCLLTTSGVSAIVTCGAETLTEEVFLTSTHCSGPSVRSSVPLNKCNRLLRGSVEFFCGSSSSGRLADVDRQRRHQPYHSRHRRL
#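 Detergent-containing arm of a paired screen for aggregation-based inhibition: 0.01% Triton X-100 present. Cruzain at 1.5 nM cleaved 2 uM Z-FR-AMC at pH 5.5 with 5 mM DTT; AMC fluorescence gain over 60 s measured activity.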
# Cruzain noTriton = blocks cruzain activity in detergent-free assay; P25779; purified cruzain, Z-FR-AMC fluorescence, no detergent; Potency, µM, inactives show max response, negative = inhibition, usual class: inhibitors; actives 2.3% (n = 200,000); active means well fitted curve in the direction sought with a large enough effect; inconclusive means small, poorly fitted or top-dose-only effect, or another doubt; inactive means no such curve, though single readings can be large; an effect the other way counts as inactive or inconclusive;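 further: plate controls were enzyme without inhibitor for no effect and buffer without enzyme for full effect; nearly all actives have a fitted effect of over 40% in size; top concentration of the series not given in the record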
#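 Purified cruzain at 1.5 nM, pre-incubated 15 min with compound at room temperature in 100 mM sodium acetate pH 5.5, 5 mM DTT, 0.00005% Triton X-100. Reaction started with 2 uM Z-FR-AMC; AMC fluorescence increase over 60 s gives rate.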
# SARS PLP yeast = SARS-CoV PLP inhibition in yeast; S. cerevisiae expressing SARS-CoV PLpro, growth rescue; control for the full effect not named in the record; Potency, µM (highest dose often 32.9 µM), for inactives: at the top dose activity, positive = growth rescue; actives 0.19% (n = 330,000); AID 485353; further: 0% is about no effect; nearly all actives have a fitted effect of over 55% in size; growth read by luminescence after 48 h
# Numbers without * were called inactive; ? = inconclusive; · = no result given; [ ] = dose if it differs, or a comment. Unless noted, the call rests on the fitted dose curve; in most records, active means well fitted rising curve with a large enough effect; inconclusive means small, poorly fitted or top-dose-only effect; inactive means no such curve, though single readings can be large or run the other way. Potency means the concentration at half of the fitted maximal effect. An excerpt; count on the stated rates, not on these rows.
SMILES,Cruzain noTriton,Cruzain inh Det,NS1 inh,Lassa entry inh,SARS PLP yeast
COc1cc(/C=C/c2nc3ccc([N+](=O)[O-])cc3s2)ccc1OCC(=O)O,·,·,4.6%,·,0.0%
O=Cc1coc2c(ccc3ccccc32)c1=O,·,·,-62.2%,·,-9.7%
Cc1ccc2nc3c(cc(C#N)c(=N)n3Cc3cccnc3)c(=O)n2c1,·,·,-2.4%,·,0.3%
C[N+]1(CC(=O)NNc2c3ccccc3nc3ccccc23)CCOCC1,·,·,0.0%,·,0.6%
O=C1CN(CC(=O)N2CCOCC2)c2ccccc2O1,8.3%,6.8%,·,·,-22.6%
Cc1nnc2n1-c1ccc(Cl)cc1C(c1ccccc1)=NC2,-3.9%,-0.8%,·,·,3.0%
c1ccc2c(c1)-c1cccc3c1c-2cc1ccccc13,-2.9%,-14.0%,·,·,-0.1%
CC(c1cc2ccccc2s1)N(O)C(N)=O (stereo not drawn),-1.3%,2.2%,·,·,0.7%
COc1ccc(-c2coc3ncnc(N)c23)cc1,·,·,·,4.4%,·
COc1ccc2ncn(-c3cc(OC(C)c4ccccc4C(F)(F)F)c(C(N)=O)s3)c2c1 (stereo not drawn),·,·,·,0.223µM*,·
CCn1c(-c2nonc2N)nc2c(C#CC(C)(C)O)ncc(OCC3CCCN3)c21 (stereo not drawn),·,·,·,?,·
Nc1ccc(C#Cc2cncnc2Nc2ccc(OCc3cccc(F)c3)c(Cl)c2)cc1,·,·,·,3.15µM*,·
CCn1cc(-c2ccnc3[nH]ccc23)c(-c2cccc(NC(=O)Nc3ccc(OCc4ccccc4)cc3)c2)n1,·,·,·,?,·
O=C(Nc1n[nH]c2cc(-c3cc(F)ccc3F)ccc12)C1CC1,·,·,·,25µM*,·
CCc1nccc2c1nc(-c1nonc1N)n2CC,·,·,·,25µM*,·
O=C(c1cccs1)N1C[C@@H](O)[C@@H](n2cc(C3CC3)nn2)C[C@@H]1c1ccccc1,·,·,·,8.4%[46.1 µM],·
NS(=O)(=O)c1ccc(N=Nc2c(O)[nH]c3ccc(-c4cnco4)cc23)cc1,·,·,·,12.5µM*,·
COC(=O)Nc1nc2ccc(Oc3ccc(NC(=O)Nc4cccc(Cl)c4)cc3)cc2[nH]1,·,·,·,6.28µM*,·
C[C@@H]1[C@@H](c2ccccc2)Oc2c(Cl)cccc2S(=O)(=O)N1Cc1ccc(F)cc1F,·,·,·,?,·
CCCCCCN1C[C@@H](n2cc(C3CC3)nn2)[C@H](O)C[C@H]1c1ccc(OC)cc1,·,·,·,?,·
CS(=O)(=O)CCNCc1nc(-c2ccc3ncnc(Nc4ccc(OCc5cccc(C(F)(F)F)c5)cc4)c3c2)cs1,·,·,·,?,·
Nc1nccc(-c2c(-c3ccc(F)cc3)ncn2C2CCNCC2)n1,·,·,·,?,·
FC(F)(F)c1ccc(-c2nn3ncccc3c2-c2ccnc(Nc3ccc4c(c3)OCCO4)n2)cc1,·,·,·,?,·
CCCCCCCCCCCCN1CCSCCS1(=O)=O,·,·,·,6.5%[46.1 µM],·
CC(C)C[C@@H]1COc2cccc(NN3CCN(C)CC3)c2S(=O)(=O)N1,·,·,·,-1.3%[46.1 µM],·
CS(=O)(=O)CCNCc1ccc(-c2ccc3ncnc(Nc4ccc(OCc5cccc(F)c5)c(C(F)(F)F)c4)c3c2)o1,·,·,·,19.9µM*,·
O=S1(=O)N[C@H](c2ccccc2)COc2cc(Br)ccc21,·,·,·,-3.3%[46.1 µM],·
Cc1nc(-c2ccccc2)n2nc(NCCCN3CCOCC3)ncc12,·,·,·,?,·
O=C(Cn1cc(COc2ccc(-c3ccc(Br)cc3)cc2)nn1)c1ccc(O)cc1,·,·,·,?,·
CCCCCC(=O)N1C[C@H](O)[C@@H](n2cc(-c3ccc(F)cc3)nn2)C[C@H]1c1ccccc1,·,·,·,3.0%[46.1 µM],·
CCCCCC(=O)N1C[C@@H](n2cc(-c3ccc(F)cc3)nn2)[C@H](O)C[C@H]1c1ccc(OC)cc1,·,·,·,?,·
C[C@@H]1[C@@H](c2ccccc2)Oc2c(Cl)cccc2S(=O)(=O)N1Cc1cccc(F)c1,·,·,·,-0.6%[46.1 µM],·

# Of the compounds above, these contain a CF3 group:
SMILES,Cruzain noTriton,Cruzain inh Det,NS1 inh,Lassa entry inh,SARS PLP yeast
COc1ccc2ncn(-c3cc(OC(C)c4ccccc4C(F)(F)F)c(C(N)=O)s3)c2c1 (stereo not drawn),·,·,·,0.223µM*,·
CS(=O)(=O)CCNCc1nc(-c2ccc3ncnc(Nc4ccc(OCc5cccc(C(F)(F)F)c5)cc4)c3c2)cs1,·,·,·,?,·
FC(F)(F)c1ccc(-c2nn3ncccc3c2-c2ccnc(Nc3ccc4c(c3)OCCO4)n2)cc1,·,·,·,?,·
CS(=O)(=O)CCNCc1ccc(-c2ccc3ncnc(Nc4ccc(OCc5cccc(F)c5)c(C(F)(F)F)c4)c3c2)o1,·,·,·,19.9µM*,·

# More results
SMILES,Cruzain noTriton,Cruzain inh Det,NS1 inh,Lassa entry inh,SARS PLP yeast
O=C(Nc1cccc2ccccc12)OC[C@@H]1CSCCS(=O)(=O)N1,·,·,·,?,·
COC(=O)[C@H](CC(C)C)N(Cc1cc(OC)cc(OC)c1)S(=O)(=O)c1ccccc1Br,·,·,·,?,·
CCCCOCC1CN(CCCC)S(=O)(=O)c2c(Oc3ccc(F)cc3)cccc2O1 (stereo not drawn),·,·,·,?,·
CCCCCCN1C[C@H](n2cc(C3CC3)nn2)[C@@H](O)C[C@H]1c1ccc(C)cc1,·,·,·,?,·
CCCCCCN1C[C@H](O)[C@@H](n2cc(-c3ccc(F)cc3)nn2)C[C@H]1c1ccc(C)cc1,·,·,·,25µM*,·
COc1cccc(-n2nc(C)c3c(NN=C(C)c4ccncc4)ncnc32)c1,·,·,·,?,·
C[C@H](CO)NS(=O)(=O)c1cc(Cl)ccc1F,·,·,·,4.6%[46.1 µM],·
Cc1ccccc1CN1[C@H](C)[C@@H](c2ccccc2)Oc2c(Cl)cccc2S1(=O)=O,·,·,·,-12.3%[46.1 µM],·
CC(C)=Cc1cccc2[nH]c(O)c(N=Nc3ccc(S(N)(=O)=O)cc3)c12,·,·,·,3.97µM*,·
CCCCCCN1C[C@@H](n2cc(C3CC3)nn2)[C@H](O)C[C@H]1c1ccccc1,·,·,·,-5.1%[46.1 µM],·
Cc1ccccc1CN1[C@@H](CC(C)C)COc2cc(Br)ccc2S1(=O)=O,·,·,·,?,·
CC1=C(C(=O)Nc2ccc3[nH]ncc3c2)C(c2ccc(Cl)c(Cl)c2)CC(=O)N1 (stereo not drawn),·,·,·,?,·
Cn1ccc2c(-c3ccc(F)cc3F)cc3c(c21)C1CCC3O1 (stereo not drawn),·,·,·,0.7%[46.1 µM],·
CNC(=O)c1cncc(C=Cc2c(C)cccc2C)c1,·,·,·,17.3%,·
O=S(=O)(N[C@@H](CO)Cc1ccccc1)c1cc(Cl)ccc1F,·,·,·,?,·
COc1cc2c(cc1Nc1nc(N3CCc4ccccc43)c3cc[nH]c3n1)N(C(=O)CN(C)C)CC2,·,·,·,?,·
CCOc1ccc2c(-c3ccnc(Nc4cc(OC)cc(C(F)(F)F)c4)n3)cnn2n1,·,·,·,?,·
O=C1Nc2ccccc2C1=C1CCc2cc(O)ccc21,·,·,·,?,·
CCCCCC(=O)N1C[C@H](n2cc(C3CC3)nn2)[C@@H](O)C[C@H]1c1ccc(Cl)cc1,·,·,·,-37.0%[46.1 µM],·
CS(=O)(=O)CCNCc1cc(-c2cc3c(Nc4ccc(OCc5cccc(F)c5)c(Cl)c4)ncnc3s2)cs1,·,·,·,?,·
Cc1ccc(C(=O)NC2CC2)cc1-c1ccc2[nH]ncc2c1,·,·,·,?,·
O=S1(=O)C=CCN1C1CCCC1,·,·,·,7.2%[46.1 µM],·
C=CCCN1[C@@H](Cc2ccccc2)COc2ccccc2S1(=O)=O,·,·,·,?,·
O=C(OC1CNC(C#Cc2cc3ncnc(Nc4ccc(OCc5cccc(F)c5)c(Cl)c4)c3s2)C1)N1CCOCC1 (stereo not drawn),·,·,·,2.81µM*,·
COc1ccc(-c2nn3ncccc3c2-c2ccnc(Nc3ccc(Cl)c(C(F)(F)F)c3)n2)cc1,·,·,·,?,·
CCCCCC(=O)N1C[C@H](n2cc(-c3ccc(F)cc3)nn2)[C@@H](O)C[C@H]1c1ccc(C)cc1,·,·,·,2.7%[46.1 µM],·
NS(=O)(=O)c1cccc(Nc2cc(-c3ccc(F)cc3)[nH]n2)c1,·,·,·,?,·
COC(=O)Nc1nc2ccc(Sc3ccc(NC(=O)Nc4cc(C(F)(F)F)ccc4F)cc3)cc2[nH]1,·,·,·,?,·
O=C(C=Cc1ccccc1)Nc1cccc(C(=O)NCc2ccccc2)c1,·,·,·,10.6%[46.1 µM],·
CCCCOCC1CN(CCCC)S(=O)(=O)c2c(Oc3ccc(SC)c(C)c3)cccc2O1 (stereo not drawn),·,·,·,-15.8%[46.1 µM],·
CC1(C)CN(C2CCCCC2)C(=O)[C@@H]1CC(=O)Nc1ccccc1,·,·,·,1.7%[46.1 µM],·
C[C@H]1CN(CCc2ccccc2)C(=O)[C@H]1CC(=O)Nc1ccc(Br)cc1,·,·,·,?,·
C=CCN1Cc2ccccc2Oc2ccc(Cl)cc2S1(=O)=O,·,·,·,?,·
CCCCCC(=O)N1C[C@@H](O)[C@H](n2cc(-c3ccc(F)cc3)nn2)C[C@H]1c1ccc(C)cc1,·,·,·,8.6%[46.1 µM],·
CC(C)CN[S+](=O)([O-])c1ccc(Br)cc1N1CCC[C@H]1CO,·,·,·,?,·
Nc1ncnc2occ(-c3ccc(NC(=O)Nc4cccc(C(F)(F)F)c4)cc3)c12,·,·,·,?,·
Cc1ccc(O)cc1Nc1ccnc2cc(-c3ccccn3)ccc12,·,·,·,25µM*,·
c1cnn2ncc(-c3ccnc(NCCCN4CCOCC4)n3)c2c1,·,·,·,?,·
O=C(OCc1cn([C@H]2C[C@H](c3ccc(Cl)cc3)N(C(=O)C3CCCCC3)C[C@H]2O)nn1)c1ccccc1,·,·,·,?,·
C[C@H](CCC(=O)OCc1cn(CC(=O)c2ccc(O)cc2)nn1)[C@H]1CC[C@H]2[C@@H]3CC[C@@H]4C[C@H](O)CC[C@]4(C)[C@@H]3C[C@H](O)[C@]12C,·,·,·,5.8%[46.1 µM],·
CC1(C)CN(Cc2ccccc2)C(=O)[C@@H]1CC(=O)Nc1ccccc1,·,·,·,?,·
CCNC(=O)OC1CNC(C#Cc2cc3ncnc(Nc4ccc(OCc5cccc(F)c5)c(Cl)c4)c3s2)C1 (stereo not drawn),·,·,·,7.91µM*,·
O=P12OCC=C[C@H](C[C@H](CC3C#C3)O1)O2,·,·,·,?,·
CNC(=O)c1cccc(C#Cc2cncnc2Nc2ccc(OCc3cccc(F)c3)c(Cl)c2)c1,·,·,·,0.791µM*,·
CN1CCC(n2cnc(-c3ccc(F)cc3)c2-c2ccnc(NCCO)n2)CC1,·,·,·,?,·
COc1cc(Nc2ncc(-c3ccccc3)o2)cc(OC)c1OC,·,·,·,?,·
C[C@H]1[C@@H](c2ccccc2)Oc2c(Cl)cccc2S(=O)(=O)N1Cc1cccc(F)c1,·,·,·,?,·
